# TRPML1 ag = activates the human TRPML1 channel. Q9GZU1. TRPML1-expressing cells, Ca2+ dye fluorescence, FDSS; host cell line not named in the record; reference of the full effect not given here. activation, % (concentration not given with the values). hit rate 0.12% among 410,000. AID 624414; in the data active = activation above about 50%; inconclusive = about 30% to 50%; inactive = below about 30%; note: 0% is about no effect; the text of the record puts the active cut at 80%
# Target sequence (Q9GZU1 whole entry, looked up): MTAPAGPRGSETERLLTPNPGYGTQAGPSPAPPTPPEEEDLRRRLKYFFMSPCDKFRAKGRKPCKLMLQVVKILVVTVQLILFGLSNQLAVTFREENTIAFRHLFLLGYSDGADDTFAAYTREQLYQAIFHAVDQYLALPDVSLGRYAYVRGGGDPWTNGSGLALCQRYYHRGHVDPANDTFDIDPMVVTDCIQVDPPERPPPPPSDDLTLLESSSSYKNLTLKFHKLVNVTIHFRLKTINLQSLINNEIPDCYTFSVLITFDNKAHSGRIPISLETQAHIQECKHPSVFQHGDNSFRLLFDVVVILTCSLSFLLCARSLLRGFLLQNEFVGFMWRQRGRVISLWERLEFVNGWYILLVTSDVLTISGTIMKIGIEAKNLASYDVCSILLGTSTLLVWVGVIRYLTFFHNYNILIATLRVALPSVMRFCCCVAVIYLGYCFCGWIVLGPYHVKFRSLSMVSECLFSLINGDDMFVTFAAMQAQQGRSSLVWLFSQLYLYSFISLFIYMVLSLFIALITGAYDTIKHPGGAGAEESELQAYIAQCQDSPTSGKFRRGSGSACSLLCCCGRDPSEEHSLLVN
#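 Tetracycline-induced TRPML1-DL cells are seeded and incubated overnight before loading with a no-wash Ca2+ dye and quencher. Agonist activity is taken from the 110 s fluorescence read following compound pin-transfer on an FDSS, before EC80 54-4 challenge.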
# TRPML1 blocker = blocks the human TRPML1 channel | Q9GZU1 | TRPML1-inducible cells, Ca2+ dye fluorescence, FDSS; stronger effect = lower value; inhibition of EC80 agonist-evoked calcium signal | AID 624415 | hit rate 0.02% among 390,000 | activity change, negative = inhibition, % (concentration not given with the values); in the data active means activity change below about -50%; inconclusive means about -30% to -50%; inactive means above about -30%;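 note: stimulus is agonist 54-4 at its EC80 concentration; % is set by controls: 0 for no effect and ±100 for the full control effect; compound concentration not given in the record; the text of the record puts the active cut at -80%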
#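 Tet-induced TRPML1-DL cells loaded with Ca8 no-wash calcium dye were read kinetically on FDSS. Compound addition was followed by EC80 agonist 54-4 (4 uM final); inhibition was read over 110 s.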
# Six1-Eya2 blk = blocks human Six1 binding to Eya2; Q15475+O00167; hit rate 0.56% among 360,000; AlphaScreen GST-Six1/His-Eya2 binding, biochemical; stronger effect = lower value; control for the full effect not named in the record; activity change, % (no concentration beside the values); in the data active = activity change below about -65%; inconclusive = about -30% to -65%; inactive = above about -30%; note: % is set by controls: 0 for no effect and ±100 for the full control effect; compound concentration not given in the record
#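 Homogeneous AlphaScreen proximity assay pairing GST-Six1 with His-tagged Eya2 (added as 5X mix: 250 nM and 500 nM) in 50 mM Tris pH 8.0, 300 mM NaCl, 1 mM TCEP. Glutathione donor and nickel acceptor beads; 1 h, 37 °C, dark.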
# CtBP-E1A inh = CtBP/E1A binding inhibition; AlphaScreen GST-E1A/His-CtBP binding, 1536-well; stronger effect = lower value; control for the full effect not named in the record; activity change, % (test concentration not listed); hit rate 0.49% among 340,000; in the data active means activity change below about -65%; inconclusive means about -30% to -65%; inactive means above about -30%; note: % is set by controls: 0 for no effect and ±100 for the full control effect; compound concentration not given in the record
#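 AlphaScreen with 125 nM GST-E1A and 125 nM His-CtBP (5X stocks) in Tris pH 8.0, 300 mM NaCl, BSA, Tween 20, TCEP. Compounds preincubated 2 h at 37 deg C, then glutathione donor/nickel acceptor beads added for 1 h at 37 deg C in dark.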
# D2 agonist = agonists of human D2 dopamine receptor (beta-arrestin). P14416. DiscoveRx PathHunter D2 beta-arrestin, luminescence, 90 min; 100% = 57 uM dopamine signal. activation, % (concentration not given with the values). hit rate 0.084% among 360,000. AID 624465; in the data active = activation above about 40%; inconclusive = about 15% to 40%; inactive = below about 15%; note: compound concentration not given in the record; the text of the record calls up to 30% inactive
# Target sequence (P14416 whole entry, looked up): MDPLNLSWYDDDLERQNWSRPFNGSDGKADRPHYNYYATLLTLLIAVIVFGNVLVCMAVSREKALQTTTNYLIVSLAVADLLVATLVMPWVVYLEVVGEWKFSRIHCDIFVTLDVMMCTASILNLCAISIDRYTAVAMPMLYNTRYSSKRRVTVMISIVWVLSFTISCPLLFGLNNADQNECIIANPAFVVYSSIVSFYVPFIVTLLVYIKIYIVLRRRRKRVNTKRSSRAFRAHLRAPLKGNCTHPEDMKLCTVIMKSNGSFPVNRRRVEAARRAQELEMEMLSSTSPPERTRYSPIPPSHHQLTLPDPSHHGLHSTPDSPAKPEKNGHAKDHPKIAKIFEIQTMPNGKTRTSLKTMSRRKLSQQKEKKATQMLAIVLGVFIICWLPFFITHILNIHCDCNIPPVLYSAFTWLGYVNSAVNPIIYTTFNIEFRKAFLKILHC
#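 Agonist mode: compounds alone added to overnight-plated D2 PathHunter cells for 90 min at 37 C, with 57 uM final dopamine (EC100) defining full response. Beta-arrestin recruitment detected by chemiluminescent reagent, read after 1 h at ambient temperature.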
# PINK1 modulator = modulators of PINK1 expression. hit rate 0.2% among 410,000. PINK1 immunofluorescence, high-content cytometry, 24 h. AID 624263. Potency, µM (top dose mostly 76.6 µM), for inactives: at the highest dose activation (PINK1 increase), usual class: activators; active = well fitted activation curve with a large enough effect; inconclusive = small, poorly fitted or top-dose-only effect; inactive = flat fitted curve, though single readings scatter; cell line not stated here;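 note: potency is the fitted concentration of half-maximal effect; % of control where 0% means no effect; nearly all actives have a fitted effect of over 65% in size; a mitochondrial uncoupler was the plate control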
#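 Compound titrations (5 concentrations, 24 h) on a stable cell line; DMSO and CCCP controls. Endpoint: fixed-cell PINK1 immunofluorescence with mitochondrial, cell and nuclear markers, scanned by microplate cytometer.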
# Active calls of the source: *; ? = inconclusive; · = not tested or not shown; [ ] = dose if it differs, or a comment.
Compound	D2 agonist	Six1-Eya2 blk	TRPML1 ag	TRPML1 blocker	PINK1 modulator	CtBP-E1A inh
CCc1ccc(-c2nnn(CC(=O)N(C3CCCC3)C3CCS(=O)(=O)C3)n2)cc1 (stereo not drawn)	3.3	2	-0.6	-9	-0.5%	15
Cc1cccn2c(=O)c3cc(C(=O)NC4CCCCC4)sc3nc12	-2.9	-3	-0.1	-3	4.2%	0
Cc1cc(C)c(NC(=O)CSc2nc3nccnc3c(=O)n2CCc2c[nH]c3ccccc23)c(C)c1	·	·	0.0	-8	-0.3%	·
Cc1ccc(C)c(Nc2nc3ccccc3[nH]2)c1	-0.9	-9	1.4	22	1.9%	-10
Cc1ccc(C2C3=C(CC(C)(C)CC3=O)Nc3[nH]c(=S)[nH]c(=O)c32)cc1 (stereo not drawn)	-1.9	-7	-0.1	-13	0.2%	1
COc1ccccc1CC(=O)Nc1ccc2nc(C)sc2c1	0.8	5	1.6	-24	0.8%	-3
Cc1ccc(C(=O)NCCCn2ccnc2)cc1[N+](=O)[O-]	-3.4	5	0.5	-2	4.8%	1
COc1ccc(OC)c(NC(=O)c2cn3c4c(ccc(Cl)c4c2=O)OC(C)C3)c1 (stereo not drawn)	·	·	0.0	48	7.0%	·
O=C(N/C=C\c1ccccc1)NCc1ccc(Cl)cc1Cl	-2.5	-2	0.6	-6	0.9%	-4
C=CCN(C(=O)CNC(=O)c1cccs1)C(C(=O)NC(C)(C)C)c1ccccc1 (stereo not drawn)	-3.0	1	-0.6	2	0.4%	4
Cc1cccc(CC(=O)Nc2cc(C)c3c(=O)oc4ccccc4c3n2)c1	0.7	2	1.2	-4	5.9%	-13
CCOC(=O)c1cnn(-c2nc(-c3cccc(F)c3)cs2)c1C(F)(F)F	-2.2	8	-0.5	-13	13%	13
COc1ccc(Cl)cc1CC=NNC(=O)c1ccncc1	0.2	-5	1.0	4	-2.6%	-2
O=C1c2ccccc2C(=O)N1CCc1csc(-c2ccc(F)cc2)n1	-3.7	34	1.6	-9	8.5%[38.3 µM]	71
CC(=O)CC1OC(=O)C(Br)=C1NCc1ccccc1 (stereo not drawn)	-1.7	-1	0.2	-6	-2.6%[38.3 µM]	8
COc1ccc(S(=O)(=O)N2CCC(C(=O)NC(C)CCc3ccccc3)CC2)cc1 (stereo not drawn)	-0.3	3	1.7	-14	-1.4%	-3
O=C(c1ccco1)N1CCCN(C(=O)c2ccco2)CC1	-0.1	4	1.9	4	5.6%[38.3 µM]	2
Cc1oc(-c2ccc(Cl)cc2)nc1Cn1c(=O)cc(C)c2c(C)nn(-c3ccccc3)c21	·	·	1.0	30	0.5%	·
S=C(NCc1ccccc1)NC1CCCCC1	-0.5	-3	-0.3	-8	1.2%	3
Cc1ccc(Cl)cc1NC(=S)N(Cc1ccco1)C(C)c1cccs1 (stereo not drawn)	-0.9	-9	2.0	15	28%	-13
Cc1ccc(C(=O)OCC(=O)Nc2sc3c(c2C#N)CCCCC3)cc1NC(=O)c1ccco1	-2.7	-8	-0.2	-5	0.3%	-10
Cc1cc(C)cc(Nc2ccc3nonc3c2[N+](=O)[O-])c1	-0.2	3	-0.1	-8	-0.9%	-11
Cc1cc(Br)cc(C)c1OCC(=O)NNC(=O)CCC(=O)NCc1ccccc1	-3.6	1	0.1	-8	0.9%	·
COCCCN(Cc1ccco1)C(=O)c1cc2c(s1)-c1ccc(Cl)cc1S(=O)(=O)C2	-3.0	0	-0.5	4	2.2%	-4

# 3 compounds out of the list above, sorted by the number in TRPML1 blocker, largest number first.
smiles | TRPML1 blocker
Cc1ccc(Cl)cc1NC(=S)N(Cc1ccco1)C(C)c1cccs1 (stereo not drawn) | 15
Cc1ccc(C(=O)OCC(=O)Nc2sc3c(c2C#N)CCCCC3)cc1NC(=O)c1ccco1 | -5
S=C(NCc1ccccc1)NC1CCCCC1 | -8

# Further results.
Compound	D2 agonist	Six1-Eya2 blk	TRPML1 ag	TRPML1 blocker	PINK1 modulator	CtBP-E1A inh
CCOC(=O)C(Cc1ccc(O)cc1)Nc1nc2ccccc2o1 (stereo not drawn)	0.9	8	0.8	-7	-4.3%	-2
O=C(COC(=O)c1ccc(Br)cc1)NCCN1C(=O)CSC1=O	-7.9	17	0.3	19	0.8%	2
O=C(CCC(=O)c1ccc(F)cc1)Nc1cccnc1	-1.7	8	0.0	21	-1.0%	4
O=C(N=C1SC2CS(=O)(=O)CC2N1c1ccc(Br)cc1)C1CCCO1 (stereo not drawn)	-12	1	0.0	-7	-0.3%	3
CCc1ccc(NC(=O)CCc2ccc(C)o2)cc1	-3.9	-15	-0.2	0	3.3%	-20
COc1cccc(-c2nnc3n2N=C(c2cc(OC)ccc2OC)CS3)c1	-2.5	-1	3.5	32	-1.3%	6
Cc1cccc(NC(=S)NCc2ccccc2Cl)c1C	-5.9	-2	3.0	2	4.4%	-12
Cn1c(=O)c2c(SCC(=O)c3ccccc3)nc(C3CC3)nc2n(C)c1=O	0.8	-4	-0.4	-11	2.5%	1
CCOC(=O)C(=O)N1CCN(CC)CC1	-1.9	2	-0.3	-3	0.1%	-1
CS(=O)(=O)N(CC(=O)NCC1CCCO1)Cc1ccc(Cl)cc1 (stereo not drawn)	0.0	8	-0.4	9	1.9%	5
CS(=O)(=O)N(Cc1ccccc1)c1ccccn1	-0.9	4	1.3	16	14%[38.3 µM]	3
NC1=NC(c2ccccc2)=NC1(NC(=O)c1ccccc1)C(Cl)Cl (stereo not drawn)	-2.7	0	1.4	8	2.4%	30
COC(=O)c1ccc2c(c1O)C(=O)c1ccccc1C2=O	14	?	0.1	-7	-3.3%	?
Cn1c(CSCc2ccc(F)cc2)nnc1SCC(=O)N1CCN(c2ccccc2)CC1	-3.0	-1	-0.3	15	2.8%	0
COc1ccc(N=c2oc3cc(O)ccc3cc2C(=O)NCC2CCCO2)c(OC)c1 (stereo not drawn)	-3.1	-1	1.5	13	?	-8
CC(=O)c1cccc(S(=O)(=O)N2CCC(c3nc4ccccc4[nH]3)CC2)c1	-3.0	-10	-0.1	4	2.6%	0
CCNC(=O)/C(=C/c1cccc([N+](=O)[O-])c1)NC(=O)c1ccc(C)cc1	-0.3	-1	-0.1	-14	0.7%	·
CC(Nc1nc2ncn(Cc3ccccc3)c2c(=O)[nH]1)C(=O)O (stereo not drawn)	-3.6	7	-1.0	13	0.5%	5
O=C(COC(=O)/C=C/c1ccc([N+](=O)[O-])cc1)NNC(=O)c1ccccc1	0.8	3	-0.2	-12	-0.5%	-1
CCOc1ccc(C(=O)N2CCN(Cc3cc(=O)n4nc(-c5cccc(OC)c5)sc4n3)CC2)cc1	·	·	-0.4	4	-1.4%	·
CCCS(=O)(=O)c1nc(S(=O)(=O)c2ccc(C)cc2)c(N2CCC3(CC2)OCCO3)s1	0.1	1	0.1	19	-0.2%	3
Cc1c(C(=O)O)sc2nc3n(c(=O)c12)CCC3	-3.3	-10	0.4	0	5.1%	-11
O=C(COC(=O)c1cccc(OC(F)F)c1)NC(=O)NC1CCCCC1	-0.7	-1	2.2	-12	22%	8
CCOC(=O)c1ccc(-n2c(C)nc3ccccc3c2=O)cc1	0.5	-5	-1.9	0	0.8%	6
COc1ccc(S(=O)(=O)N2CCOC2CNC(=O)C(=O)NCCCN2CCOCC2)cc1OC (stereo not drawn)	-2.4	4	-0.4	14	0.1%	7
O=C1c2ccccc2C(=O)N1SC1CCCCC1	-4.6	0	1.0	16	2.0%	-2
Cc1cc(C)cc(NC(=S)/C(=C(\[O-])c2ccc(Cl)s2)[n+]2cccc(C)c2)c1	-6.5	-19	-0.7	60	5.0%	-9
COc1ccccc1CN1C(=O)[C@@H]2C(CC(N)=O)NC3(C(=O)Nc4c3ccc(Cl)c4C)[C@@H]2C1=O (stereo partly drawn)	-2.6	-1	-0.2	0	5.4%[38.3 µM]	1
O=C(c1ccccc1Cl)N1CCSCC1	0.4	-1	0.5	25	-1.2%	-3
Cc1c(C)c2c(OCC(=O)NC3CC3)cc3c(c2oc1=O)CCC(C)(C)O3	-6.0	-23	·	·	0.5%	?
O=C(CCc1nc2ccccc2c(=O)[nH]1)NCC(=O)Nc1ccc(F)c(F)c1	-4.6	7	0.6	4	-0.6%	-4
COc1ccc(S(=O)(=O)N(CC(=O)O)c2ccccn2)cc1	-1.4	7	0.8	-7	-1.0%	-17
Cc1nc(SC2CC(=O)N(c3ccc([N+](=O)[O-])cc3)C2=O)nc2c1CCCC2 (stereo not drawn)	-3.3	-2	-1.0	2	-1.5%	-1
CCCNC(=O)C1Cc2cc(S(=O)(=O)N3CCCCCC3)ccc2N1C(C)=O (stereo not drawn)	·	·	-1.0	6	1.3%	·
CCOc1ccccc1-c1nc(C(N)=O)c2[nH]c(=O)n(-c3cccc(C)c3)c2n1	-3.6	-6	-0.2	-4	-1.5%	0
Clc1nc2ccccc2cc1/C=N/Nc1nc2ccccc2[nH]1	0.8	-4	-0.2	-1	8.4%	3
Cc1ccc(-c2noc(-c3ccccc3Br)n2)cc1	-3.8	15	0.8	-7	?	43
Cn1c(=O)c2c(nc(Oc3ccc4ccccc4c3)n2C)n(C)c1=O	1.5	-8	1.6	2	-4.3%[38.3 µM]	-7
C=CCN(C(=O)c1csnn1)C(C(=O)NC1CCCC1)c1ccccc1 (stereo not drawn)	-2.6	0	-0.7	-4	2.9%	4
CCN1CCCC1CNS(=O)(=O)c1c(C)cc(C)cc1C (stereo not drawn)	-2.5	-24	-1.0	49	-3.2%	-11
CCc1ccc(NC(=O)c2cccnc2)cc1	-2.3	-1	-1.2	-2	-0.5%	2
O=C1CC(c2ccc(O)c(O)c2)Oc2c1ccc(O)c2O (stereo not drawn)	14	-26	·	·	0.5%	0
COc1ccc(CCNC(=O)Oc2ccccc2)cc1OC	0.0	-7	3.6	11	1.5%	·
NC(=O)/C(=C\c1ccco1)NC(=O)c1ccco1	-5.8	-20	-0.3	-7	2.4%	-6
COCCn1c(SCC(=O)NCCc2ccccc2)nnc1-c1ccco1	-2.1	-6	1.8	24	-4.0%[38.3 µM]	-7
Cn1cc(-c2ccc(Cl)cc2)cc(C#N)c1=O	-1.3	2	0.5	-11	1.4%	-3
O=C1CN(C(=O)CSc2nc3c(cnn3-c3ccccc3)c(=O)[nH]2)c2ccccc2N1	-2.3	-5	1.5	-7	4.4%	3
C=CCNC(=S)Nc1nc2c(cc1C(=O)OCC)COC(C)(C)C2	-4.9	0	·	·	0.3%	9
CN1CCN(CC(=O)N2CCn3c4c(c5cc(C6CCCCC6)ccc53)CCCC42)CC1 (stereo not drawn)	3.4	-20	3.4	-5	-1.2%	-11

# Screens (PubChem BioAssay)

# Compounds were not picked by outcome. Share with any hit: about 1%.
